H5N1 antiviral: MDCK cell protection from H5N1 avian flu; inhibition, % at 50 µM; cytopathic effect, luminescence, 72 h; stronger effect = higher value; no value below 0 was filed and about half of the inactive calls have no number; reference of the scale not given here; 96,000 tested, 0.07% active; in the data active = inhibition above about 25%
An asterisk follows results filed as active; i = inactive. This is a subset, so the mix of outcomes need not match the whole.

Compound,H5N1 antiviral
Cc1ccc(CS(=O)(=O)CCC(=O)NCCN(C)Cc2ccccc2)cc1,i
CCOC(=O)c1sc(NC(C)=O)nc1-c1ccccc1,i
CC(CCc1ccccc1)NC(=O)CSc1nccc(=O)[nH]1 (configuration not stated),i
CN(C)CCOC(=O)c1cccc(Br)c1,i
COc1cccc(C2C(C(N)=O)=C(C)Nc3nc(-c4ccccc4Cl)nn32)c1 (configuration not stated),2.3
COc1ccc(NC(=O)C(CC(=O)O)Cc2ccccc2)cc1 (configuration not stated),i
Cc1cnn(-c2ccc3nnc(-c4ccc(Br)cc4)n3n2)c1,2.0
CCn1nnnc1SCC(=O)Nc1cccc(NC(C)=O)c1,i
CC(C)(C)c1ccc2c(c1)OCC(C(=O)O)O2 (configuration not stated),2.5
CS(=O)(=O)c1ccc(Cl)c(NC(=O)COC(=O)CNC(=O)c2ccc(Br)o2)c1,i
CCOC(=O)C1=C(C)Nc2ncnn2C1c1ccccc1F (configuration not stated),0.9
CCC(=O)OC1c2ccccc2C(=O)N1Cc1ccccc1 (configuration not stated),i
Cc1ccc(CS(=O)(=O)CCC(=O)N2CCOCC2)cc1,i
COc1ccc(S(=O)(=O)N2CCN(c3ccccc3OC)CC2)cc1OC,1.4
COc1ccccc1/C=C/C=N/N1CCN(Cc2cccc3ccccc23)CC1,i
COc1ccc(OC)c(C2C(C(C)=O)=C(O)C(=O)N2Cc2cccnc2)c1 (configuration not stated),i
COC(=O)c1[nH]c2ccc(C)cc2c1NC(=O)CN1CCN(c2ccc(F)cc2)CC1,0.5
CCCOC(=O)c1ccc(OC(=O)c2ccco2)cc1,i
CC(C)(C)Nc1nc(SCc2ccccc2)nc(N2CCOCC2)n1,0.4
COc1ccc(-n2c(SCC(=O)N3CCCCC3)nnc2-c2cccnc2)cc1,1.2
N#CCN1CCN(CC(=O)Nc2cccc3ccccc23)CC1,i
COC(=O)c1ccc2c(=O)n(CCCCCC(=O)NCc3ccccn3)c(=O)[nH]c2c1,1.1
CCOC(=O)/C(C#N)=C/c1ccc(OCC(=O)Nc2ccccc2)c(OC)c1,0.6
Cc1ccc(S(=O)(=O)Cn2nnnc2CN2CCN(C(=O)c3ccco3)CC2)cc1,1.2
CCOc1ccc(CCNC(=O)C2CCC(=O)N2C2CCCCC2)cc1OCC (configuration not stated),0.0
COc1ccc(-c2cc3ccccc3oc2=O)cc1NC(=O)c1ccc(Br)o1,1.2
Cc1cccc(-c2c3c(=O)n(C)c(=O)n(C)c3cn2CCO)c1,1.1
Cc1ccc(Cn2c(SCC(=O)NCc3ccco3)nc3ccsc3c2=O)cc1,1.6
O=S(=O)(/N=C(/Nc1ccccn1)c1ccccc1)c1ccc(Cl)cc1,1.1
CCCCCCC(c1c(C)n(C)n(-c2ccccc2)c1=O)c1c(C)n(C)n(-c2ccccc2)c1=O,i
COC(=O)CSc1nnc(CNC(=O)c2ccccc2OC)n1-c1ccc(OC)cc1,0.0
Cc1cc(-n2c(C)cc(C(=O)CSc3ncnc4ccccc34)c2C)no1,1.9
COc1cc(-c2nc3ccc4ccccc4c3c3c2CCC3)cc(OC)c1OC,1.2
CCOC(=O)Nc1ccc2c(c1)N(C(=O)N1CCN(C)CC1)c1ccccc1S2,i
CCN(CCCNC(=O)C1CCCN(S(=O)(=O)c2cnc[nH]2)C1)c1ccccc1 (configuration not stated),i
C=CCSc1nc(N)c(C(=O)Nc2ccccc2)cc1C#N,1.1
N#Cc1c(Cl)cccc1-n1ccnc1,0.1
CS(=O)(=O)C1=C(O)C(=O)N(CCCC(=O)O)C1c1ccccc1F (configuration not stated),i
OCCNc1ncnc2ccc(Br)cc12,2.5
CC1C(=O)CC(c2ccccc2)N(C)C1c1ccccc1 (configuration not stated),0.9
CS(=O)(=O)Nc1ccc(S(=O)(=O)NCCc2ccccc2)cc1,5.0
Cc1ccc(C(=O)N/C(N)=N/c2nc3ccccc3o2)cc1,0.8
COc1ccc(OC)c(NC(=O)c2[nH]c(C)c(C(C)=O)c2C)c1,i
O=C(NCCN1CCOCC1)C1CCC(=O)N1Cc1ccccc1Cl (configuration not stated),0.4
CCOC(=O)C1=C(N)Oc2cc(C)[nH]c(=O)c2C1c1ccncc1 (configuration not stated),0.8
N/C(=N\OC(=O)c1ccc(Br)cc1)c1ccccc1,i
CC1CN(S(=O)(=O)c2ccccc2)CC(C)O1 (configuration not stated),i
c1ccc(Cc2nnc(N3CCOCC3)c3ccccc23)cc1,0.4
CCCCN(CC)c1nc(N)c2c(N)nc(OCC)cc2c1C#N,0.2
c1cc2cn[nH]c2cc1NC1CCCCCC1,i
Cc1ccccc1-c1nnc(SCC(=O)Nc2ccc(Cl)cc2)n1N,i
Nc1cc(Cl)nc(N/N=C/c2ccccc2[N+](=O)[O-])n1,1.2
CCOC(=O)c1sc(NC(=O)CSc2n[nH]c(-c3ccncc3)n2)c(C#N)c1C,i
COc1ccc(-c2noc(CCC(=O)NCc3cccnc3)n2)cc1,0.5
COc1ccc2c(c1OC)C(=O)OC2CC(=O)O (configuration not stated),i
Cc1ccccc1CSc1nnc(-c2ccco2)n1Cc1ccco1,i
COc1cc(NS(=O)(=O)c2ccc(NC(C)=O)cc2)ncn1,i
O=C(O)c1cccn2c(=O)c3ccccc3nc12,1.1
O=C(c1csc2c1CCCCC2)N1CCC2(CC1)OCCO2,1.2
CCCC(=O)c1ccc(N2CCCCCC2)c(F)c1,i

An excerpt from above in order of count of non-hydrogen atoms, falling:
Compound,H5N1 antiviral
O=C(NCCN1CCOCC1)C1CCC(=O)N1Cc1ccccc1Cl (configuration not stated),0.4
Cc1ccc(C(=O)N/C(N)=N/c2nc3ccccc3o2)cc1,0.8
CCCC(=O)c1ccc(N2CCCCCC2)c(F)c1,i

Other compounds.
Compound,H5N1 antiviral
CCOC(=O)C1CCCN(c2c(N3CCN(C)CC3)c(=O)c2=O)C1 (configuration not stated),2.2
Cc1ccc(NC(=O)/C(=C\C=C\c2ccccc2)NC(=O)c2ccccc2)cc1,0.5
Nc1nc2ccccc2n1C(=O)CCc1ccccc1,i
Cc1c(C(=O)N2CCOCC2)oc2ccc(S(=O)(=O)N3CCCCCC3)cc12,1.9
COc1cccc(C(=O)N2CCSC2=S)c1,0.3
Cc1cc(C)nc(SC(C)C(=O)N/N=C/c2cccs2)n1 (configuration not stated),2.0
CC(C)COc1ccc(C(=O)OCCN2CCOCC2)c(O)c1,0.9
COc1ccc(S(=O)(=O)N2CCCCCC2)cc1C(=O)OCC(=O)NC(N)=O,0.6
COc1ccc(-c2nnc3n2C(C)(C)Cc2cc(OC)c(OC)cc2-3)cc1,i
CC1CCN(S(=O)(=O)c2ccc(NC(=O)Cc3cccs3)cc2)CC1,1.9
CCCCNC(=O)Nc1ccccn1,4.4
Cc1noc(C)c1C(=O)OC(C(=O)NC1CCCC1)c1ccc(F)cc1 (configuration not stated),0.5
CCCN(CCC)C(=O)Cn1c(=O)n(CCCCC(=O)NCc2ccco2)c(=O)c2ccccc21,0.3
Cc1ccnn2c(-c3ccccc3)c3c(=O)n(C)c(=O)n(C)c3c12,1.1
CCOC(=O)CCCNC(=O)CN1C(=O)NC(CCc2ccccc2)C1=O (configuration not stated),i
CCOC(=O)N1CCN(CCC(=O)Nc2ccc(Br)cc2)CC1,i
CCc1ccc(C(=O)COC(=O)C(Cc2ccccc2)NC(=O)C2CCC(C)CC2)cc1 (configuration not stated),i
CCOc1cc(NC(=O)c2cccs2)c(OCC)cc1NC(=O)c1ccco1,i
O=C(Cc1cccs1)N1CCN(c2ccccn2)CC1,0.3
CCOC(=O)c1ccc(NC(=O)CCOc2ccc(OC)cc2)cc1,i
CCOc1ccc(NC(=O)C(C)Sc2nnnn2C)cc1 (configuration not stated),0.2
Cn1c(C(=O)NC2CC2)cc2c(=O)n(C)c3ccccc3c21,i
CCOC(=O)Cc1cnc(NC(=O)NC(C(=O)OCC)(c2ccccc2)C(F)(F)F)s1 (configuration not stated),i
CCOC(=O)c1cc(C)sc1NC(=S)Nc1ccccc1,i
O=C(O)C1[C@H]2C(=O)N(Cc3cccs3)C[C@]23C=C[C@H]1O3 (some centres not stated),0.3
CS(=O)(=O)N(CC(=O)N1CCCC1)c1ccc2c(c1)OCCO2,i
CCCNC(=O)CCC(=O)Nc1ncc(-c2ccc(C)cc2)n1C,0.5
CSCCC(NC(=O)c1cc(C)oc1C)C(=O)O (configuration not stated),i
O=C(c1cccc(N2C(=O)C3CC=CCC3C2=O)c1)N1CCCCCC1 (configuration not stated),i
COc1ccc(OC)c(-c2nnc(NC(=O)C(C)Sc3nncn3C)s2)c1 (configuration not stated),0.7
Cn1c(=O)[nH]c(=O)c2c1ncn2CCCc1ccccc1,0.2
COc1ccc(NC(=S)N2N=CCC2c2ccccc2)cc1 (configuration not stated),0.7
Cc1cc(C)n2c(Nc3ccc4c(c3)OCCO4)c(-c3ccccc3)nc2n1,i
CCn1c(=O)c(C(=O)NC(C)C)c(O)c2ccccc21,i
COc1ccc2cc(C(=O)c3ccccc3)c(=O)oc2c1,i
OC(CNCCc1ccc(Cl)cc1)COCc1ccco1 (configuration not stated),i
CC1CC1C(=O)OCC(=O)NC(=O)NCc1ccco1 (configuration not stated),1.0
O=C(CN(Cc1ccc2c(c1)OCO2)C(=O)CSc1nc2ccccc2o1)NC1CCCCC1,i
CCSc1nc(-c2ccco2)ccc1C#N,7.5
O=C(N/N=C\c1ccccc1)c1sccc1-n1cccc1,i
CCOC(=O)c1c(-c2ccc(C)cc2C)csc1NC(=O)CSc1nnnn1C,2.8
CCCCCn1c(N)c(C(=O)NCc2cccs2)c2nc3ccccc3nc21,0.4
COc1cc(NC(=O)c2ccc3c(=O)n(Cc4ccco4)c(=S)[nH]c3c2)cc(OC)c1OC,i
COC(=O)CNS(=O)(=O)c1ccc(OC)cc1,0.5
C/C(=C\c1ccccc1)CN1CCN(c2ccccc2)CC1,i
Cc1nc(/C=[N+](\[O-])C(C)(C)/C=N/O)n(O)c1C,i
Cn1cc(C(CC(=O)O)C(=O)O)c2ccccc21 (configuration not stated),i
FC(F)C(F)(F)C1=CC(c2ccccc2)=NCCN1,i
CCOc1ccc(-c2cc(C(=O)N3CCN(C)CC3)c3ccccc3n2)cc1,i
CCS(=O)(=O)N1CCN(c2c(Cl)cccc2[N+](=O)[O-])CC1,2.5
O=C(CCN1CCN(c2ccccc2)CC1)Nc1nccs1,i
CCOC(=O)c1c(C)nc2sccn12,0.1
CSC1=NP(=S)(SC)N2CCCC2=C1C#N (configuration not stated),i
Cc1cc(NC(=O)c2ccc(Cl)cc2)no1,0.5
CCC(C)(C)NC(=O)CN(C(=O)c1snc(C(N)=O)c1N)c1ccc2c(c1)OCO2,i
O=C(NCc1ccc(F)cc1)c1noc2c1CCCC2,1.9
Cc1ccc(S(=O)(=O)CCc2nc3ccccc3n2CCC#N)cc1,16.3
CCOC(=O)CNC(=O)c1ccccc1,0.2
Fc1ccc(-n2c(Cc3ccccc3)nnc2SCc2nc(-c3ccc(Cl)cc3)no2)cc1,1.5
O=C(NCCc1ccccn1)C1CC(=O)N(Cc2ccccc2Cl)C1 (configuration not stated),0.6

A second format for 4 compounds above:
SMILES: COC(=O)CNS(=O)(=O)c1ccc(OC)cc1
  H5N1 antiviral: 0.5
SMILES: C/C(=C\c1ccccc1)CN1CCN(c2ccccc2)CC1
  H5N1 antiviral: i
SMILES: Cc1nc(/C=[N+](\[O-])C(C)(C)/C=N/O)n(O)c1C
  H5N1 antiviral: i
SMILES: Cn1cc(C(CC(=O)O)C(=O)O)c2ccccc21 (configuration not stated)
  H5N1 antiviral: i

Continuation:
Compound,H5N1 antiviral
CC1CCCN(C(=O)CSc2nnc(-c3ccc(S(=O)(=O)N4CCOCC4)cc3)n2C)C1 (configuration not stated),0.0
Cc1cc(C)c2nc(N3CCCC(C(=O)N4CCN(c5ncccn5)CC4)C3)sc2c1 (configuration not stated),0.8
Cc1ccc(CNC(=O)C2CCCN(Cc3cnn(-c4ccccc4)c3-n3cccc3)C2)cc1 (configuration not stated),i
CCCCn1c(SCC(=O)c2ccc(OCC)cc2)nc2cc(S(N)(=O)=O)ccc21,0.4
COc1ccc(N2C(=O)CC(N3CCN(c4ccc(S(=O)(=O)N5CCCC5)cc4)CC3)C2=O)cc1 (configuration not stated),0.8
COc1ccc(/C=N/NC(=O)c2nc(Cl)c(Cl)c(N)c2Cl)cc1COc1ccccc1F,0.7
CCc1ccc(NC(=O)CS(=O)CC(=O)NC(C)CCc2ccco2)cc1 (configuration not stated),i
CC(Sc1ccc(Cl)cc1)C(=O)Nc1ccccc1C(=O)N1CCOCC1 (configuration not stated),i
CCOC(=O)c1c(C)[nH]c(C)c1C(=O)CSc1nc(N)cc(=O)[nH]1,i
COc1ccccc1N1CCN(c2ccc(-c3ccccc3)nn2)CC1,i
O=C(c1cc2sccc2n1Cc1ccccc1)N1CCCc2ccccc21,i
COc1ccccc1CN(Cc1nc2ccccc2c(=O)[nH]1)C(=O)Nc1ccc(C)cc1,0.1
CS/C(=N\S(=O)(=O)c1cccs1)NC(=O)CSc1nc2ccccc2s1,0.6

Quoted at random: 3 records from the list
Compound,H5N1 antiviral
Cc1ccc(CNC(=O)C2CCCN(Cc3cnn(-c4ccccc4)c3-n3cccc3)C2)cc1 (configuration not stated),i
CC1CCCN(C(=O)CSc2nnc(-c3ccc(S(=O)(=O)N4CCOCC4)cc3)n2C)C1 (configuration not stated),0.0
CCOC(=O)c1c(C)[nH]c(C)c1C(=O)CSc1nc(N)cc(=O)[nH]1,i

Bioassay records as filed in PubChem BioAssay.
